H5N1 antiviral = MDCK cell protection from H5N1 avian flu. cytopathic effect, luminescence, 72 h; active compounds read high; no value below 0 was filed and about half of the inactive calls have no number; reference of the scale not given here. inhibition, % at 50 µM. 0.07% of 96,000 active. AID 740, 2007; in the data active = inhibition above about 25%
An asterisk follows results filed as active; i = inactive. Only part of the results is shown (hit frequency here may not be typical).

SMILES	H5N1 antiviral
COC(=O)NCC(c1cccnc1)N1CCN(c2ccccc2OC)CC1 (stereo not drawn)	i
O=C(CSC1=Nc2ccccc2C2=NC(Cc3c[nH]c4ccccc34)C(=O)N12)NC1CCCCC1 (stereo not drawn)	0.8
COCCNC(=O)CCCn1c(=O)c2ccccc2n(CC(=O)NCCC2=CCCCC2)c1=O	0.9
COc1ccc(Cl)cc1S(=O)(=O)n1nnc2ccccc21	0.1
Cc1nc(SCc2ccccc2C)n[nH]1	0.1
O=C(CN1CCN(Cc2ccc(Cl)cc2)C1=O)NCCCN1CCOCC1	1.1
COc1ccc(-n2ncc3c(N4CCCCC4)ncnc32)cc1	i
CC/S(CC1CC1(Cl)Cl)=N\S(=O)(=O)c1ccc(C)cc1 (stereo not drawn)	i
O=C(NC(=S)Nc1ccc(Br)cn1)c1cncc(Br)c1	1.9
O=C(c1ccco1)N(Cc1nc2ccccc2c(=O)[nH]1)C1CCCC1	i
O=c1c2ccccc2nc2n1CCC2	2.0
Cc1ccccc1CN(c1ccc(C(N)=O)cc1)S(C)(=O)=O	i
Cc1nc(-c2cccc(S(=O)(=O)N3CCOCC3)c2)cs1	1.4
Cc1nc2c(C(=O)NCc3ccco3)cnn2c(C)c1Cc1ccc(F)cc1Cl	0.8
O=C(Nc1nccs1)C12CC3CC(C1)CC(C(=O)Nc1nccs1)(C3)C2	1.2

Reformatted field by field: entries from further up
> CC/S(CC1CC1(Cl)Cl)=N\S(=O)(=O)c1ccc(C)cc1 (stereo not drawn)
  H5N1 antiviral: i

> O=C(NC(=S)Nc1ccc(Br)cn1)c1cncc(Br)c1
  H5N1 antiviral: 1.9

> O=C(c1ccco1)N(Cc1nc2ccccc2c(=O)[nH]1)C1CCCC1
  H5N1 antiviral: i

> O=c1c2ccccc2nc2n1CCC2
  H5N1 antiviral: 2.0

Part of the list above in order of formula weight, largest number first:
SMILES	H5N1 antiviral
O=C(CSC1=Nc2ccccc2C2=NC(Cc3c[nH]c4ccccc34)C(=O)N12)NC1CCCCC1 (stereo not drawn)	0.8
O=C(c1ccco1)N(Cc1nc2ccccc2c(=O)[nH]1)C1CCCC1	i
COc1ccc(-n2ncc3c(N4CCCCC4)ncnc32)cc1	i

(next part)
SMILES	H5N1 antiviral
CCN(CC)S(=O)(=O)c1cccc(-c2nnc(C(=O)c3ccc(C(F)(F)F)cc3)o2)c1	0.8
CCCCOC(=O)c1ccc(NC(=O)C(CCS(C)(=O)=O)NC(C)=O)cc1 (stereo not drawn)	0.2
COc1ccccc1NC(=O)Cn1cnc2c1c(=O)n(C)c(=O)n2C	0.9
CC(N)Cc1ccccc1Sc1ccc(O)cc1 (stereo not drawn)	i
CN1CCN(CCC(=O)N2c3ccccc3Sc3ccc(Cl)cc32)CC1	0.6
O=c1[nH]c(-c2cccs2)nc2ccccc12	4.1
C=CCn1c(SCC(=O)c2cc(C)n(CC3CCCO3)c2C)nnc1-c1ccccc1 (stereo not drawn)	1.4
Clc1ccc(CN2CCCCCCC2)cc1Cl	0.5
CC(C)n1c(=S)[nH]c2ccccc2c1=O	1.5
Cc1ccc(C(=O)N2CCN(C3CCCCC3)CC2)s1	i
c1ccc(N=P(N2CCOCC2)(N2CCOCC2)N2CCOCC2)cc1	i
O=C(CN1C(=O)C2CCCCN2C(=O)c2ccccc21)N1CCCc2ccccc21 (stereo not drawn)	0.5
Cc1csc(NC(=O)c2cccc(Cn3nc(C)c(Br)c3C)c2)n1	i
Cc1ccc(/C=C2/NC(=O)N(c3ccccc3)C2=O)o1	i
COC(=O)CSc1nnc(CNC(=O)c2cccc(C)c2)n1-c1ccccc1OC	0.9
Cc1cccc(NC(=O)c2cc3c(n(-c4ccccc4)c2=O)CCCC3=O)n1	1.1
CCOCCOC(=O)C1=C(C)N(C)C(=O)NC1c1cc(Cl)c(O)c(OCC)c1 (stereo not drawn)	i
O=C(Nc1ccccc1)N1CCn2c(nc3ccccc32)C1	2.5
Cn1nnnc1SCC(=O)Nc1ccc(Oc2ccccc2)cc1	i
CN1CCCCC1=NCCCn1cnc2c1c(=O)n(C)c(=O)n2C	i
C#CCn1cnc2c(cnn2-c2ccc(C)c(C)c2)c1=O	2.6
COc1ccc(CCNc2oc(-c3ccc(OC)c(OC)c3)nc2C#N)cc1	1.0
CCOC(=O)c1c(C)oc2c1c(C(c1cccnc1)N1CCOCC1)c(O)c1ccccc12 (stereo not drawn)	i
CCOC(=O)c1c(NC(=O)Cn2cnc([N+](=O)[O-])n2)sc2c1CCC(C)C2 (stereo not drawn)	i
CCOC(=O)Cn1c(CN2CCN(C(c3ccccc3)c3ccccc3)CC2)nc2c1c(=O)n(C)c(=O)n2C	6.5
O=S(=O)(NCCSCc1ccc(Cl)cc1Cl)c1ccc2c(c1)OCCO2	0.1
Cn1c2ccccc2c2c(C(=O)N3CCN(c4ccccc4)CC3)cn(C3CCCC3)c(=O)c21	0.6
COC(=O)c1ccc(Sc2ccccc2NS(=O)(=O)c2ccc(C)cc2)nc1	i
CCCCNC(=O)CNC(=O)c1cccs1	3.3
Cc1ccccc1S(=O)(=O)c1c(C)cc(-c2ccccc2)[nH]c1=O	i
O=C(Nc1cccc(F)c1)C1CC(=O)N(c2ccc(Br)cc2)C1 (stereo not drawn)	i
CCC(=O)n1nc(-c2ccco2)nc1N	0.7
CCCCN(C)CCNC(=O)Cn1ncc2c(=O)oc3ccc(C)cc3c21	0.4
COC(=O)c1cc2ccsc2n1CC(=O)Nc1cc(Cl)ccc1OC	i
COc1cccc(Nc2ncc(C(=O)O)c3ccccc23)c1	i
CCOC(=O)C(Cc1ccccc1)NC(C)=O (stereo not drawn)	i
CN1CCN(CCCC(=O)c2ccc(F)cc2)CC1	i
CC(C)n1cc(NC(=O)c2cc(-c3ccccc3)on2)cn1	i
CCCCCN1CC(O)=C(c2ccccc2)C1=N	0.1
O=C(c1n[nH]c(=O)c2ccccc12)N1CCN(c2ccccc2)CC1	0.1
Cc1ccc(N(C(=O)C(F)(F)F)C(C(=O)NC2CCCCC2)c2cccs2)cc1 (stereo not drawn)	i
CCOc1ccccc1CNC(=O)C1CCN(c2nc3ccccc3o2)CC1	i
CCO/C=C/C(O)(CNC(=O)COc1ccccc1F)C(F)(F)F (stereo not drawn)	1.3
Cc1ccc(S(=O)(=O)NCCSC(C)(C)C)cc1	0.6
CCNc1nc(NC(C)C)nc(Oc2ccc(/C=N/O)cc2)n1	i
CCCC(CCC(=O)Nc1ccc(C(=O)OC)cc1)C(=O)O (stereo not drawn)	i
Cc1nc2ccccc2n1CC(O)Cn1c(C(F)(F)F)nc2ccccc21 (stereo not drawn)	i
CCOc1ccc(C(=O)OCCN(C)C)cc1	i
CCOCCn1c(CN(Cc2ccccc2)Cc2ccccc2)nc2c1c(=O)[nH]c(=O)n2C	0.6
COc1ccccc1CN1CCN(C(=O)COc2cccc(C)c2)CC1	i
O=C1C2C3C=CC(C3)C2C(=O)N1c1ccc2c(c1)OCO2 (stereo not drawn)	0.5
O=C(NCc1ccccc1)N[C@@H](Cc1c[nH]c2ccccc12)C(=O)O	i
O=C(c1ccccc1)N1CCCCC(S(=O)(=O)c2ccccc2)C1=O (stereo not drawn)	i
COC(=O)c1ccccc1NC(=O)NCC1CCCO1 (stereo not drawn)	0.7
COc1ccc(C(=O)N2CCC(O)(c3ccc(F)cc3)CC2)cc1OC	i
COc1cc(-n2ccnc2SC)c(Cl)cc1Cl	0.3
Cc1cc(NCCCN2CCOCC2)n2nc(C)c(-c3ccccc3)c2n1	i
Cc1ncc(CSc2nnnn2-c2ccccc2)c(N)n1	i
Clc1ccc(Sc2cc(Cl)c(-c3ccccc3)nn2)cc1	0.8
Cc1ccccc1CN1CCN(CC(=O)NCc2ccco2)C1=O	0.6

Fetched by compound from above:
SMILES	H5N1 antiviral
CN1CCCCC1=NCCCn1cnc2c1c(=O)n(C)c(=O)n2C	i
CCOC(=O)c1c(C)oc2c1c(C(c1cccnc1)N1CCOCC1)c(O)c1ccccc12 (stereo not drawn)	i

The list goes on:
SMILES	H5N1 antiviral
O=C(CSc1nnc(-c2cccs2)n1-c1ccccc1)NCc1ccco1	1.9
CCC(=O)c1ccccc1OCCCN1C(=O)NC(C)(C)C1=O	0.3
CCOC(=O)C1=C(CNCc2ccc(C)cc2)NC(=O)NC1c1ccc(OC)cc1 (stereo not drawn)	i
CC1C(=O)CCC1(C(=O)O)c1ccccc1 (stereo not drawn)	i
O=C(c1cc2c(s1)CCCC2)n1cccn1	0.3
Cc1cccc(C)c1NC(=O)CSc1nnc(-c2ccncc2)n1Cc1ccco1	i
COc1cccc(C(=O)N2CCN(Cc3ccccc3C(F)(F)F)CC2)c1	0.3
CCSc1nnc(NC(=O)Cc2ccc(OC)cc2)s1	0.0
CC(C)N=C(NC#N)SCC(=O)NC(C)(C)C	i
O=C1C=C(NCCN2CCOCC2)CC(c2ccccc2)C1 (stereo not drawn)	0.7
C/C(N)=C(/C#N)C(=O)COC(=O)C1Cc2ccccc2CN1S(C)(=O)=O (stereo not drawn)	i
Cc1ccsc1-c1nc(CSCC(=O)N2CCC3(CC2)OCCO3)c(C)o1	0.1
O=C(O)CNS(=O)(=O)c1cc(Cl)c(Cl)cc1Cl	0.5
Cc1cc(NC(=O)c2cc(CC(C)C)on2)no1	i
CSCCC(C(=O)Nc1ccc2c(c1)OCO2)N1C(=O)c2ccccc2C1=O (stereo not drawn)	i
CCN1CCN(CCCNC(=O)c2ccc3c(c2)NC(=O)c2ccccc2S3)CC1	i
CC(C)(C)c1ccc(C(=O)Oc2ccc3c(c2)OCC3=O)cc1	i
Clc1ccccc1OCc1nn2c(-c3ccncc3)nnc2s1	0.7
CCOC(=O)/C(=C\Nc1ccccc1C(F)(F)F)Sc1ncc(C(F)(F)F)cc1Cl	i
CCCS(=O)(=O)N1CCC(C(=O)N2CCN(Cc3ccccc3)CC2)CC1	i
CC(=O)N1CCc2cc(S(=O)(=O)N3CCc4ccccc4C3)ccc21	i
CCOC(=O)/C(N)=C/c1ncc(C(F)(F)F)cc1Cl	i
CSc1nc(-c2ccccc2)nn1S(=O)(=O)c1ccc(Cl)cc1	i
CCOCCCNS(=O)(=O)c1ccc2c(c1)CCN2C(C)=O	1.0
O=C(Nc1ccc(OC(=O)N2CCCC2)cc1)N1CCOCC1	i
Nc1nonc1-c1nc2ccccc2n1CC(=O)O	0.7
COc1cc(C(=O)Nc2cccc(-c3nc4cc(C)ccc4o3)c2C)cc(OC)c1OC	i
Cc1cc(C(=O)N2CC(C)CC(C)C2)n(-c2ccccc2)n1 (stereo not drawn)	0.4
CCc1ccc(CCC(=O)Nc2sc3c(c2C#N)CCCC3)o1	i
O=C(CSc1nnc(Nc2ccccc2F)s1)NCc1ccco1	1.4
Cc1cc(C)c(S(=O)(=O)NCCCN2CCOCC2)cc1Br	i
COc1cc(C(=O)NCC(C)C)c([N+](=O)[O-])cc1OC	1.4
CCCS(=O)(=O)N1CCC(C(=O)NCC2CCCO2)CC1 (stereo not drawn)	i
c1ccc(C2C3=C(CCCC3)Nc3ncnn32)cc1 (stereo not drawn)	2.0
O=C(COC(=O)c1ccc(S(=O)(=O)NCc2ccco2)cc1)NCC1CCCCC1	i
Clc1ccc(-c2nnc3cccc(Cl)n23)c(Cl)c1	i
O=C1CCC(c2ccccc2)N1C(=O)c1cccnc1 (stereo not drawn)	i
CCOC(=O)c1sc(NC(=O)CSc2nc(-c3ccco3)cc(C(F)(F)F)n2)c(C(=O)OC)c1C	0.5
O=C(Nc1cnccn1)C1c2ccccc2Oc2ccccc21	0.3
O=C(Nc1nccs1)C1CCCN(S(=O)(=O)c2cccnc2)C1 (stereo not drawn)	1.9
CCOC(=O)CSC1=C(C#N)C(c2ccco2)C(C(=O)Nc2cccc(C(F)(F)F)c2)=C(C)N1 (stereo not drawn)	i
COc1ccc(CC(=O)OCC(=O)NC(=O)NC23CC4CC(CC(C4)C2)C3)cc1	1.8
COc1ccc(C(=O)N(CC2CCCO2)C(C(=O)NC2CCCC2)c2ccc(C)cc2)cc1OC (stereo not drawn)	0.6
CC(=O)N(c1ccccc1)c1c(F)c(F)c(F)c(F)c1F	i
COc1ccc2nc(Nc3nc(C)c(C(C)=O)s3)sc2c1	2.0
O=C(O)CCCN1C(=O)/C(=C/c2ccc(-c3nc4ccccc4s3)o2)SC1=S	2.4
c1cncc(-c2nc(NCc3ccco3)c3ccccc3n2)c1	i
N#Cc1nc(Cc2ccccc2)oc1N1CCN(c2cccc(Cl)c2)CC1	0.4
CC(CCO)Nc1nc2c([nH]1)c(=O)n(C)c(=O)n2C (stereo not drawn)	2.2
O=C(Nc1nccs1)c1nc(-c2ccccc2)n(-c2ccccc2)n1	1.1
Cc1ccc2cc(CCNC(=O)c3ccco3)c(=O)[nH]c2c1C	0.5
Cc1ccccc1C(=O)N1CCN(c2nc(N3CCOCC3)nc(N3CCOCC3)n2)CC1	i
CCC(C)(C(=O)NC1CCCCC1)N(Cc1ccco1)C(=O)c1ccccn1 (stereo not drawn)	0.2
Cn1nc(-c2ccccc2)c(C(O)c2ccc(Cl)cc2)c1Cl (stereo not drawn)	1.6
O=C(Cn1cc([N+](=O)[O-])cn1)Nc1nc2ccccc2s1	0.1
COC(=O)N/C(C)=C1/NC(=O)c2ccccc2C(c2ccccc2)N1 (stereo not drawn)	i
CCOCCCNC(=O)c1cn(C)c(=O)c2cc(OC)c(OC)cc12	i
CCNc1cccc2c1C(=O)N(C)C2=O	0.1
